ERG-DNA inh: blocks human ERG Ets domain binding to DNA. Potency, µM (titrated, usually from 76.9 µM), inactives show at the highest dose FP activity, negative = inhibition, usual class: inhibitors. actives 0.028% (n = 370,000). fluorescence polarization, His-ERG Ets domain / labelled DNA. P11308. AID 624246; active = well fitted inhibition curve with a large enough effect in the polarisation, with a control signal flat; inconclusive = small, poorly fitted or top-dose-only effect, or effect the other way, or a change in a side signal; inactive = no such curve, though single readings can be large or run the other way; the % refers to the polarisation;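 also: polarization taken with two DNA probes labelled with fluorescein and Texas red; potency is read from the fitted curve at half-maximal effect; % of control where 0% means no effect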
Target sequence (P11308 whole entry, looked up, the tested form may be a part): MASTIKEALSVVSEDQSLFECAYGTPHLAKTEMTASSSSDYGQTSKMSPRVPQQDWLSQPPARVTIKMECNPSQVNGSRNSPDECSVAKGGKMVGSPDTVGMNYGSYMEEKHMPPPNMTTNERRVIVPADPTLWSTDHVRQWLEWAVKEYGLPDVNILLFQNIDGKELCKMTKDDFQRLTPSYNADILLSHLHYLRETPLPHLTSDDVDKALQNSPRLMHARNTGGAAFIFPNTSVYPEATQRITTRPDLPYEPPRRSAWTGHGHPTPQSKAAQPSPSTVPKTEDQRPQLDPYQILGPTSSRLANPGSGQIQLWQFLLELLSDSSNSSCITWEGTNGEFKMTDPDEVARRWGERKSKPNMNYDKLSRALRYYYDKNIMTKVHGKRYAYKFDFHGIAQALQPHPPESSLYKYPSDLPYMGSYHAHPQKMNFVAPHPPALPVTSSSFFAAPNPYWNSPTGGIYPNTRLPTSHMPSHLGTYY
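His-tagged ERG Ets domain (1 uM in the protein solution; 300mM KCl, 50mM Tris-HCl, 1mM EDTA, 1mM DTT, pH 7.5) received compound, then a probe mix of 5 nM fluorescein-DNA and 100nM Texas-615-DNA. Fluorescence polarization was read for both dyes.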
BLM inh: blocks DNA unwinding by human BLM helicase | AID 2528 | actives 0.2% (n = 350,000) | Potency, µM (titrated, usually from 56.1 µM), without a hit: at the highest dose activity change, negative = inhibition, hits mostly inhibitors | recombinant BLM DNA unwinding, fluorescence dequenching;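 also: potency is read from the fitted curve at half-maximal effect; plate controls were vehicle for no effect and no enzyme for full effect; nearly all actives have a fitted effect of over 35% in size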
POLB inh: blocks human DNA polymerase beta activity; Potency, µM (series often up to 114 µM), inactives show top-dose activity change, negative = inhibition, most hits filed as inhibitors; AID 485314; P06746; actives 1.3% (n = 340,000); Pol beta primer extension/strand displacement, fluorescence kinetic; also: potency is read from the fitted curve at half-maximal effect; % is scaled to controls: 0 for no effect and ±100 for the full control effect
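Pol beta (10 nM) and compounds were preincubated 15 min at room temperature, then 50 nM substrate (final) started primer extension/strand displacement. Reads were taken at 0 and 10 min; concentration-response data were fitted to a four-parameter Hill equation.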
APEX1 inh: APE1 (human) endonuclease inhibition | actives 0.35% (n = 350,000) | Potency, µM (titrated, usually from 65.8 µM), inactives show at the top dose activity change, negative = inhibition, actives largely listed as inhibitors | recombinant APE1, TAMRA/BHQ-2 abasic DNA cleavage fluorescence | P27695;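 also: potency is read from the fitted curve at half-maximal effect; plate controls were vehicle for no effect and reference inhibitor for full effect; nearly all actives have a fitted effect of over 55% in size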
Target sequence (P27695 whole entry, looked up): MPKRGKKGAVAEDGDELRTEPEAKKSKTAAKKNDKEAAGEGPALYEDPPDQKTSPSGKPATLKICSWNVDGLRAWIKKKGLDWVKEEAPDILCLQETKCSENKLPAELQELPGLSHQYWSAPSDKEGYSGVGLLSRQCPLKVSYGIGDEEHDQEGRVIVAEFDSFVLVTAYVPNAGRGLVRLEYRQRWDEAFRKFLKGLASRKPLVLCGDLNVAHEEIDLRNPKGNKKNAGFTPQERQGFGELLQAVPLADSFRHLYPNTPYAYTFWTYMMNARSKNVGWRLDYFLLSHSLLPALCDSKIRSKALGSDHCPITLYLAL
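APE1 at 0.75 nM final was preincubated with compound 15 min at room temperature, then 50 nM double-stranded THF abasic-site substrate (5'-TAMRA/3'-BHQ-2) was added. Fluorescence (ex 525/em 598 nm) was read kinetically; third-minus-first read gave activity.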
Apoferritin bind: candidate novel general anesthetic via apoferritin binding. P02791. apoferritin/1-aminoanthracene competitive binding, fluorescence. Potency, µM (doses to about 77.5 µM), for inactives: at the top dose activity change, negative = displacement, usual class: inhibitors. actives 0.074% (n = 350,000). AID 485281; also: potency is read from the fitted curve at half-maximal effect; % is scaled to controls: 0 for no effect and ±100 for the full control effect; nearly all actives have a fitted effect of over 20% in size
Target sequence (P02791 2-175 limits assumed): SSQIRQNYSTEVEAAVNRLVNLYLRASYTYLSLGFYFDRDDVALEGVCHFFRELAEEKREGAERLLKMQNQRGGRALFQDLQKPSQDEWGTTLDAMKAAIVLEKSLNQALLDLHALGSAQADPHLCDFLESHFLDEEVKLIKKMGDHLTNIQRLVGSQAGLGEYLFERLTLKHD
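10 uM apoferritin + 50% sat. 1-AMA, PBS; cpd 10 min RT; Ex380/Em535 endpoint; normalized to free probe vs complex; 4-param Hill fit; propofol titration as pos. ctrl.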
POLI inh: inhibitors of human DNA polymerase iota. Pol iota fluorescent replication assay, 10 min. Q9UNA4. actives 1% (n = 390,000). Potency, µM (doses to about 115 µM), for inactives: top-dose activity, negative = inhibition, most hits filed as inhibitors; also: potency is read from the fitted curve at half-maximal effect
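Fluorescent replication assay read twice, at 0 min and 10 min after adding 50 nM (final) substrate. Enzyme (10 nM) and compounds were first incubated 15 min at room temperature; enzyme-free buffer wells were negative controls.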
TRHR agonist: agonists of human TRH receptor; activation, % at 2 µM; P34981; TRHR cells, calcium flux fluo-8, FDSS agonist mode; actives 0.18% (n = 360,000); in the data active = activation above about 30%; also: 0% is about no effect
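Read-out: compound-evoked intracellular calcium rise in TRHR cells, fluo-8 dye, kinetic FDSS fluorescence at 1 s/cycle following a 10-cycle baseline. Cells cultured overnight before dye loading (30 min–1.5 h, RT).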
Pol kappa inh: blocks human DNA polymerase kappa activity; Q9UBT6; purified Pol kappa, fluorescent DNA synthesis assay, 10 min; Potency, µM (highest dose often 107 µM), inactives show at the top dose activity, negative = inhibition, hits mostly inhibitors; actives 0.53% (n = 400,000); AID 588579; also: potency is read from the fitted curve at half-maximal effect; % is scaled to controls: 0 for no effect and ±100 for the full control effect
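10 nM Pol kappa preincubated 15 min at room temperature with compounds, then reaction started with substrate at 50 nM final. Fluorescence read kinetically at 0 and 10 min; buffer-only wells served as negative control.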
An asterisk follows results filed as active; ? = inconclusive; · = no result given; & = joins results of further samples; [ ] = another dose, or the depositor's remark. Unless noted, calls follow the shape of the dose curve; as a rule, active = well fitted curve in the direction sought with a large enough effect; inconclusive = small, poorly fitted or top-dose-only effect, or another doubt; inactive = no such curve, though single readings can be large; an effect the other way counts as inactive or inconclusive. A portion of the library; count on the stated rates, not on these rows.

SMILES	ERG-DNA inh	BLM inh	POLB inh	APEX1 inh	Apoferritin bind	POLI inh	TRHR agonist	Pol kappa inh
O=C(CNC(=S)N(CCCN1CCOCC1)Cc1cccs1)NCc1ccccc1	0%	1%	29%	51%[activator]	0%	4%	-0.2	-2%
CCCCn1c(-c2csc3c2CCC(C)C3)n[nH]c1=S (stereo not drawn)	-2%	-18%	6%	9%	?	32%[activator]	-0.7	-1%
CCOC(=O)c1ccc(NC(=O)CCOc2ccc(OC)cc2)cc1	-2%	-4%	2%	2%	-17%	33%[activator]	-0.6	-20%
O=c1c(O)c(-c2ccc(O)c(O)c2)oc2cc(O)ccc12	10%	-26%&-16%	·	?	·	2.5µM*	·	2.8µM*
Cc1ccc(C(=O)O)cc1NC(=S)NC(=O)C(c1ccccc1)c1ccccc1	0%	1%	0%	-3%	-18%	?	-0.5	-19%
CCOc1ccc(C2C(C(=O)c3ccc(C)o3)=C(O)C(=O)N2Cc2cccnc2)cc1 (stereo not drawn)	-3%	4%	-8%	74%[activator]	-7%	16%	-0.5	7%
CN(C(=S)SCc1ccccc1)C1CCS(=O)(=O)C1 (stereo not drawn)	4%	-5%	0%	0%	-14%	58%[activator]	0.1	3%
CC(=O)NC1(NC(C)=O)CCN(C)C(c2ccccc2)C1C (stereo not drawn)	1%	-2%	-1%	6%	3%	13%	1.8	-15%
COc1cc(/C=C/C(=O)/C=C(O)/C=C/c2ccc(O)c(OC)c2)ccc1O	96%[activator]	-2%&-4%&1%	·	-4%&1%&-2%	-12%	?	58*	?
Cc1nnc(SCC(=O)NCc2cccs2)[nH]c1=O	·	-1%	1%	-5%	-9%	-10%	0.1	-14%
CC(C)(CO)[C@@H](O)C(=O)NCCC(=O)NCCSSCCNC(=O)CCNC(=O)[C@H](O)C(C)(C)CO	·	-4%	·	·	·	·	·	-3%[19.4 µM]
CC(C)C(=O)N1CCN(C2=NS(=O)(=O)c3ccccc32)CC1	-3%	0%	23%	-3%	1%	-3%	0.8	-9%
COCCN(C(=O)COC(=O)c1ccccc1Cc1ccccc1)c1c(N)n(Cc2ccccc2)c(=O)[nH]c1=O	13%	·	·	-10%	·	11%	-0.3	-16%
COc1cccc(C2=NOC(C(=O)NC(C)C)C2)c1 (stereo not drawn)	-11%	1%	48%	-3%	-8%	3%[58.9 µM]	-0.1	-7%
CSC1=C(C#N)C(c2ccccc2Cl)C(C(C)=O)=C(C)N1 (stereo not drawn)	2%	4%	-29%	0%	-11%	-20%	-0.6	-9%
Cc1ccc(NC(=S)N/N=C/c2ccc(OCCC(C)C)cc2)c(C)c1	-3%	-7%	0%	0%	358%[activator]	11%	0.7	-16%
N=c1c2c(-c3ccccc3)c(-c3ccccc3)n(Cc3ccccc3)c2ncn1CCCO	-16%	-6%	9%	3%	-24%	6%	-0.4	-6%
Fc1ccc(-c2cn3ccccc3n2)cc1	0%	1%	-4%	-5%	·	0%	-0.4	-15%
Cc1cc2n(c(=O)c1C#N)CCCN2c1ccccc1	-11%	1%	-1%	2%	-12%	10%	0.1	-16%
COc1cc2[nH]c(C(=O)N3CC(C)OC(C)C3)cc2c(OC)c1OC (stereo not drawn)	7%	-5%	?	7%	-10%	-4%	0.2	-2%
O=C(c1cccnc1)N1CCN(Cc2cccc(F)c2)CC1	1%	2%	3%	14%	6%	13%	0.3	2%
Cc1cccc(NC(=O)COC(=O)c2n[nH]c3ccccc23)c1C	-5%	·	·	8%	·	6%	-0.5	-24%
CC(C(=O)NN=C(c1ccccc1)c1ccccc1)N1CCCC1 (stereo not drawn)	-7%	-4%	1%	-3%	-22%	-6%	-0.2	-2%
O=C(O)c1ccc(Cl)c(S(=O)(=O)Nc2ccccc2N2CCOCC2)c1	12%	-4%	3%	8%	-6%	7%	-0.9	-10%
CCOC(=O)c1cnn(-c2ccccc2)c1NC(=O)C(F)(F)C(F)(F)C(F)(F)F	-4%	-1%	0%	3%	-1%	5%	1.1	1%
Cc1ccccc1NC(=S)NCCC(c1ccccc1)c1ccccc1	-6%	-10%	-9%	-9%	65%[activator]	-5%	-0.5	-15%
NC(=O)NNc1ccccc1	·	-2%&2%	·	3%	7%	·	·	3%&-3%[19.4 µM]
O=C(Cn1ncc2c1-c1ccccc1OC2)N1CCc2ccccc21	9%	1%	?	-4%	?	22%	-0.8	2%
CSc1ccccc1NC(=O)c1cc(CC(C)C)on1	-4%	1%	-5%	1%	0%	15%	1.7	8%
O=C(Nc1ccccc1)c1ccccc1NS(=O)(=O)c1ccc(Cl)s1	-3%	-5%	-22%	7%	-2%	3%	5.6	-3%
CCc1ccc(OCC(=O)NC(=S)Nc2ccc(C(=O)O)cc2)cc1	2%	0%	15%	2%	-5%	34%[activator]	-0.2	-1%
CCc1nnc(NS(=O)(=O)c2ccc(NS(=O)(=O)c3ccccc3[N+](=O)[O-])cc2)s1	-1%	-1%	-2%	-9%	6%	-3%	0.5	-2%
Cc1ccc(NCC(O)C(O)C(O)CO)c(N=Nc2ccccc2)c1C (stereo not drawn)	9%	-3%	-29%	-3%	?	60%[activator]	0.5	10%
O=C(Oc1ccccc1)c1c(Cl)cccc1P(=O)(O)O	-4%	1%	1%	2%	-9%	-11%	0.1	6%
O=C(NCc1ccc(F)cc1)c1nnc(Cc2cccc(F)c2)o1	2%	-5%	-11%	·	·	-9%	1.8	-9%
Cc1cc(C)n(CC(=O)N/N=C/c2cc(Br)cc([N+](=O)[O-])c2O)n1	-2%	2%	36%	-3%	-6%	10%	0.0	13%
COc1ccc(CN2CCN(Cc3nc4ccccc4s3)CC2CCO)c(C)c1C (stereo not drawn)	-3%	-3%	0%	?	-11%	9%	-0.4	-6%
CCCC(O)(CCN1CCCCC1)c1ccc(OCC)cc1 (stereo not drawn)	2%	3%	6%	0%	-15%	-8%	0.4	-10%
O=C(NCc1ccc(F)cc1)C(=O)c1cn(CC(=O)N2CCCC2)c2ccccc12	3%	-4%	7%	33%	?	36%[activator]	-0.7	-17%
COc1ccc(C(=O)NCC(=O)N2CCCC(C(F)(F)F)C2)cc1OC (stereo not drawn)	5%	·	·	21%	·	54%[activator]	0.4	3%
O=C(Nc1nc2ccccc2c(=O)s1)c1ccco1	-1%	0%	19%	4%	-7%	3%	-0.3	-15%
O=C(Nc1cccnc1)c1cccc(F)c1	-7%	5%	41%	11%	0%	33%[activator]	0.2	-9%
CCOc1cc(C2C(C(=O)c3ccco3)=C(O)C(=O)N2CC2CCCO2)ccc1O (stereo not drawn)	-3%	-4%	31%	42%	-6%	48%[activator]	0.0	2%
COc1cccc(OCc2cc(C(=O)N(C)CCOc3ccc(C)cc3)no2)c1	-3%	-12%	-19%	42%	·	-8%	1.3	-5%
Cc1cc(/C=C\c2ccc3cc(N(C)C)ccc3[n+]2C)c(C)n1-c1ccccc1	119%[activator]	?	·	-28%	1%[29.3 µM]	?	-1.3	·
Cc1ccnc(SCC(=O)Nc2sc3c(c2C#N)CCC(C(C)(C)C)C3)n1 (stereo not drawn)	0%	-3%	17%	0%	-7%	16%	0.5	-3%
Cc1ccc(NC(=O)Cn2nc(C)c3ccccc3c2=O)cc1F	2%	-3%	9%	1%	?	11%	-0.3	-6%
COc1ccc(Cl)cc1NC(=O)C[n+]1cccc(C)c1	-9%	-11%	16%	11%	·	-6%	-0.6	-1%
O=C(c1nnsc1S(=O)c1ccc(Cl)cc1)N1CCOCC1 (stereo not drawn)	5%	-2%	4%	-3%	-1%	?	13	-3%
COc1ccc(C(=O)Nc2ccc(N3CCCC3)cc2)cc1OC	-15%	-10%	-1%	-14%	?	?	-0.8	-42%
CCC(C)C(NC(=O)OC(C)(C)C)C(=O)NCc1ccco1 (stereo not drawn)	0%	-3%	26%	3%	-6%	15%	0.1	-1%
Cc1ccc(NC(=O)CN(C)C(=O)CNC(=O)c2cccs2)cc1	·	·	·	12%	·	24%	0.2	-8%
O=c1c(-c2ccccc2)coc2cc(O)ccc12	-8%	-8%	?	-6%	5%	42%[activator]	-0.5	9%
O=C(c1n[nH]c2c1CCC2)N1CCCC(Nc2cccc(F)c2)C1 (stereo not drawn)	-3%	-5%	53%	4%	-11%	7%	0.2	-21%
Nc1nonc1-n1nnc(C(=O)N/N=C/c2ccc(OCc3ccc(F)cc3)cc2)c1COc1ccccc1	7%	-2%	21%	-10%	-9%	5%	1.3	1%
COc1ccccc1NC(=O)CSc1nccc(=O)[nH]1	-2%	-2%	-21%	-1%	4%	16%	-0.1	-3%
Cc1cccc(-c2nc3c4ccccc4nc(NCc4ccc(Cl)cc4)n3n2)c1	1%	-6%	33%	·	-7%	3%	0.7	0%
Cc1cc(C)n(C(=O)C(C)n2nc([N+](=O)[O-])c(Br)c2C)n1 (stereo not drawn)	-2%	2%	4%	18%	-10%	80%[activator]	-0.2	-4%
C=CC[C@]12C=C(OC)C(=O)C=C1O[C@@H](c1ccc3c(c1)OCO3)[C@H]2C	-4%	·	·	·	·	3%	·	3%
COc1ccc(C(=O)NC(=S)NC(C)C)cc1Br	2%	-6%	8%	2%	-9%	27%	·	0%

Additional results.
SMILES	ERG-DNA inh	BLM inh	POLB inh	APEX1 inh	Apoferritin bind	POLI inh	TRHR agonist	Pol kappa inh
COc1ccc2cc(CN(CCO)C(=O)c3ccc(Br)cc3)c(=O)[nH]c2c1	10%	-1%	21%	-1%	-11%	13%	-0.3	-3%
COC(CNC(=O)c1ccc(N2CCCC2=O)cc1)OC	-2%	-3%	7%	-5%	-3%	8%	0.5	-5%
CCC(C)C(=O)OC1CC(O)C=C2C=CC(C)C(CCC(O)CC(O)CC(=O)O)C21 (stereo not drawn)	·	5%	·	·	9%	·	·	-8%[60.1 µM]
O=C(O)c1ccc2c(c1)CC(c1ccccc1)OC2=O (stereo not drawn)	-2%	-3%	-7%	?	-11%	19%	0.5	-9%

Three compounds already listed, ordered by length of the SMILES, rising:
SMILES	ERG-DNA inh	BLM inh	POLB inh	APEX1 inh	Apoferritin bind	POLI inh	TRHR agonist	Pol kappa inh
COc1ccc(C(=O)NC(=S)NC(C)C)cc1Br	2%	-6%	8%	2%	-9%	27%	·	0%
COc1ccc2cc(CN(CCO)C(=O)c3ccc(Br)cc3)c(=O)[nH]c2c1	10%	-1%	21%	-1%	-11%	13%	-0.3	-3%
C=CC[C@]12C=C(OC)C(=O)C=C1O[C@@H](c1ccc3c(c1)OCO3)[C@H]2C	-4%	·	·	·	·	3%	·	3%

Assay outcomes (PubChem)
